# UUG fidelity: yeast start codon fidelity modulation; S. cerevisiae UUG-firefly luciferase reporter, luminescence/redox ratio; activity score, % at 18.7 µM; 350,000 compounds, 0.13% hits; AID 602363;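 active = replicate mean at a twofold rise or more, about +100% in these data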;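 also: firefly luciferase made from a UUG start codon reports start codon fidelity; reporter light over untreated wells divided by growth signal over untreated wells; some hits fall short of that in this replicate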
# Env fusion inh: inhibitors of HIV Env-mediated cell fusion; 360,000 compounds, 1.1% hits; inhibition, % at 12.3 µM; HeLa-JRFL Env/CEM21 cell fusion, luciferase;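 active = mean replicate inhibition score of at least 50 and every replicate individually at or above 50; inconclusive = only one of the two criteria met; inactive = mean below 50 and not all replicates reaching 50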;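 also: 0% = plate neutral controls and 100% = maraviroc near 300 nM; one replicate is shown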
# MT1-MMP act inh: inhibitors of human MT1-MMP activation; P50281; HT1080 RFP-PRO-GFP cells, GFP/RFP ratio fluorescence, overnight; percent of plate control window, DMSO zero; GFP/RFP ratio change, % at 20 µM; 360,000 compounds, 0.061% hits;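 active = GFP/RFP ratio change of at least 30% with cell ATP level not reduced by more than half and red fluorescence within 50% of control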; also: strong numbers were not always called active
#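 Material – HT1080 RFP-PRO-GFP cells · Control set – DMSO wells and RFP-L50D-GFP cells · Incubation – overnight cell settling, then overnight compound exposure, 37 °C, 5% CO2 · Compound dosing – single-point 20 µM compound, 1% DMSO · Read-out – GFP/RFP fluorescence ratio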
# eIF4H FP inh: inhibitors of RNA binding by human eIF4H; eIF4H fluorescence polarization binding assay; 290,000 compounds, 0.94% hits; inhibition, % at 35 µM;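 active = 50% or more with normal probe brightness, or confirmed in later tests; inconclusive = above 50% with abnormal brightness, or retests that disagree; inactive = below 50% or failed in later tests; about a fifth of its hits are not listed in these tables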;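 also: calls also rest on retests at 20 µM and on dose response follow-up; 0% = protein and probe with vehicle and 100% = probe without protein; strong numbers were not always called active; many hits fall short of the cut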
# CSC inhib: cancer stem cell inhibition; cancer stem cell-like cells viability, luminescence; inhibition, % at 7.5 µM; 300,000 compounds, 1.1% hits; AID 2717;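 active = mean at 75% or more and at least half the replicates too; inconclusive = mean and replicates disagree; tested in HMLE shEcad cells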;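 also: 0% = median of negative and 100% = median of positive control wells; the first replicate is given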
# PABP FP inh: PABP-poly(A) binding inhibition | P11940 | PABP-poly(A) RNA binding, fluorescence polarization | inhibition, % at 35 µM | 290,000 compounds, 1% hits | AID 2014;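 active = 50% or more with normal probe brightness, or confirmed in later tests; inconclusive = above 50% with abnormal brightness, or retests that disagree; inactive = below 50% or failed in later tests; about a fifth of its hits are not listed in these tables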;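 also: calls also rest on retests at 20 µM and on dose response follow-up; controls were probe without protein and protein plus probe with vehicle; some compounds called inactive have numbers as strong as hits; many hits fall short of the cut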
# Rce1 inh: yeast Ras-converting enzyme inhibition; Q03530; yeast membranes, quenched prenylated peptide cleavage fluorescence; calls only; 290,000 compounds, 0.27% hits; AID 2563;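 active = fall in fluorescence gain of 50% or more versus controls, with final raw signal at or below 3038400; inconclusive = same 50% fall but final raw signal above 3038400; inactive = fall in fluorescence gain under 50%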;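 also: plate controls were neutral control wells for no effect and wells lacking membranes for full effect; tested at 10 µM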
# Target sequence (Q03530 whole entry, looked up): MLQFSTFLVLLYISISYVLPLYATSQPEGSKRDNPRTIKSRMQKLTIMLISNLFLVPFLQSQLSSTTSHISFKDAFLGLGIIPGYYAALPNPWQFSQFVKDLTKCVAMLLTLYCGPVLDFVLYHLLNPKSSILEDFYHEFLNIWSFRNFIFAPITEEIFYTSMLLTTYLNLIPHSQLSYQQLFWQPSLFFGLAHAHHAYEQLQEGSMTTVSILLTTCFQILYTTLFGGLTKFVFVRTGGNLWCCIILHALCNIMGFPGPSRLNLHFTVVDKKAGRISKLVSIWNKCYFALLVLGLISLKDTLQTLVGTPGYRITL
# eIF4H FP inh retest: second read-out of eIF4H FP inh, no call of its own (marks repeat the call); inhibition, %; compound at 20 µM; confirmation average;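 mean of two retest wells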
# PABP FP inh retest: recorded beside PABP FP inh, whose call it bears; inhibition, %; compound at 20 µM; confirmation repeats;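 mean of two retest wells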
# MT1-MMP act inh RFP: also measured in MT1-MMP act inh; calls as there; RFP signal change, %; measured here: RFP expression control read;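 0 = vehicle wells; hits needed this value within 50% of zero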
# The depositor's hits bear a star; i = inactive; ? = inconclusive; / = no result given; + = active, no number; & = joins results of further samples; [ ] = remark or other dose.
SMILES,UUG fidelity,Env fusion inh,MT1-MMP act inh,MT1-MMP act inh RFP,eIF4H FP inh,CSC inhib,PABP FP inh,Rce1 inh,others
Cc1cccc2sc(NC(=O)CN(C)S(=O)(=O)c3ccc(Br)s3)nc12,-10,/,0,-13,-8,35,9,i,
Cc1ccc(S(=O)(=O)Nc2ccc3nc(C)sc3c2)c(C)c1,-3,/,-12,-28,/,1,/,/,
CCOc1ccc(N2C(=O)C3C(c4ccc(OC)cc4OC)NC(CCSC)(C(=O)OC)C3C2=O)cc1 (stereo unspecified),-11,-3,0,0,-11,-9,0,/,
COC(=O)C[C@H]1c2cc(F)ccc2S(=O)(=O)N1c1ccccc1,-10,15,/,/,/,-10,/,i,
CC1CCCCN1C(=O)c1c([N+](=O)[O-])cnn1C (stereo unspecified),-7,-20,5,6,-11,/,-5,i,
COc1ccc(N2CCN(S(=O)(=O)c3cccc4cccnc34)CC2)cc1,10,-22,-2,3,8,1,0,i,
CCOC(=O)/C(=N\Nc1ncnc2ccccc12)c1ccc(OC)cc1,-30,-20,-4,4,8,-11,-2,i,
O=C(Nc1ccc(F)c(F)c1)c1ccco1,-10,12,-2,-2,-4,4,-2,i,
Cc1ccc(N(C(=O)CNC(=O)c2ccco2)C(C(=O)NC2CCCC2)c2ccncc2)cc1C (stereo unspecified),-25,0,-2,-1,-4,-18,6,i,
Cc1ccc(N=Nc2c(=O)[nH]n3c(=O)cc(C)[nH]c23)cc1,-4,/,15,1,-3,-6,5,i,
C/C=C(\C)C(=O)OC(C)(C)[C@@H]1Cc2cc3ccc(=O)oc3cc2O1,-11,-14,2,-2,/,11,/,/,
CCOc1ccc(-c2nnc(NC(=O)CCCOc3cccc(C)c3)o2)cc1,-13,-28,9,3,4,11,-2,i,
COc1ccc(NC(=O)Cn2nc(Cc3cccnc3)c3ccccc3c2=O)c(OC)c1,-13,1,9,4,7,-8,8,i,
CC(=O)N1c2ccc(S(=O)(=O)N3CCCC3)cc2CC1C(=O)NC(C)C (stereo unspecified),-15,-8,-2,-2,-12,-6,2,i,
CCC(=O)Nc1nnc(C(C)(C)C)s1,-5,-51,2,7,-5,21,-10,i,
Cc1nc(CSc2nnc(C)s2)cs1,/,/,0,1,4,/,-1,i,
COc1ccc(CNC(=O)c2ccc(N(C)S(=O)(=O)c3ccc(C)cc3)cc2)cc1,-9,2,1,-7,-9,13,2,i,
Cn1cnc(S(=O)(=O)NCc2cccs2)c1,-8,/,1,12,10,-2,-5,i,
COc1cccc(Cn2cc(C)cc(NC(=O)NCc3ccccc3)c2=O)c1,-13,-13,0,-1,4,35,-5,i,
CC(C)C1C(C#N)=C(N)Oc2n[nH]c(-c3cccs3)c21 (stereo unspecified),-6,13,0,1,-20,8,2,i,
COc1ccc(S(=O)(=O)Nc2cccc3c2O[C@H](CN(C)Cc2ccc(C(=O)O)cc2)[C@@H](C)CN([C@H](C)CO)C3=O)cc1,21&-2,14[16.7 µM],1,1,/,/,/,/,
COc1ccc(C2=C/C(=C\c3ccccc3OC(C)=O)C(=O)O2)cc1,-5,-1,-3,-1,?,3,?,i,
CC1/C(=N/O)CC(c2ccccc2)NC1c1ccccc1 (stereo unspecified),-3,/,-5,-5,-11,-6,-10,i,
CC(C)c1ccc(N2C(=O)CC(NNC(=O)c3ccccc3Cl)C2=O)cc1 (stereo unspecified),-19,1,4,3,6,-3,12,i,
CCOC(=O)c1nnn(CC(=O)Nc2ccccc2)c1C(=O)OCC,/,3,0,2,-3,-9,-10,/,
COc1ccc(CCNC(=O)CCC(=O)Nc2nnc(C(C)C)s2)cc1OC,/,-16,2,4,-15,1,78,i,eIF4H FP inh retest=6;PABP FP inh retest=-1
CSCCC(=O)N1CCC(CCC(=O)NC2CC2)CC1,-19,-6,2,3,-6,6,-4,i,
Cc1cc(C(=O)COC(=O)Cc2c(F)cccc2Cl)c(C)n1C,-6,-45,-1,3,/,/,/,/,
CC(=O)N1c2ccccc2C(=O)C1N1CCCCC1 (stereo unspecified),/,/,-2,5,7,9,17,i,
COc1cccc(N2CCN(c3ccc4nnc(CCC(=O)Nc5ccc(F)cc5F)n4n3)CC2)c1,/,8,1,-2,-4,-3,-7,i,
O=C(Oc1ccc(Br)cc1C(=S)N1CCOCC1)c1cccc([N+](=O)[O-])c1,-15,-4,1,5,-9,-4,-2,i,
Cc1c(/C(O)=C2/C(=O)C(=O)N(Cc3cccnc3)C2c2ccccn2)cnn1-c1ccccc1 (stereo unspecified),/,-21,1,-1,-11,-2,15,i,
CC(=O)c1cccc(NC(=O)C(OC(=O)c2cccc(S(=O)(=O)N(C)c3ccccc3)c2)c2ccccc2)c1 (stereo unspecified),-11,51,-4,-6,-7,-2,-11,i,
COc1ccc(-c2c(C#N)c(SCC(N)=O)nc3c2CCCC3)cc1,-14,-18,-5,-8,-12,-24,1,i,
O=C(CSc1nc(-c2ccccc2)nc2ccccc12)Nc1nccs1,-14,-25,0,2,0,-13,2,i,
CC1(C)Cc2ccccc2/C(=C/C(=O)N2CCCCCC2)N1,-10,/,0,4,6,40,12,i,

# By substructure: those above containing a furan ring, fused or not
SMILES,UUG fidelity,Env fusion inh,MT1-MMP act inh,MT1-MMP act inh RFP,eIF4H FP inh,CSC inhib,PABP FP inh,Rce1 inh,others
O=C(Nc1ccc(F)c(F)c1)c1ccco1,-10,12,-2,-2,-4,4,-2,i,
Cc1ccc(N(C(=O)CNC(=O)c2ccco2)C(C(=O)NC2CCCC2)c2ccncc2)cc1C (stereo unspecified),-25,0,-2,-1,-4,-18,6,i,

# Continuation:
SMILES,UUG fidelity,Env fusion inh,MT1-MMP act inh,MT1-MMP act inh RFP,eIF4H FP inh,CSC inhib,PABP FP inh,Rce1 inh,others
Nn1c(SCC(=O)Nc2ccccc2F)nnc1C1CCCCC1,-16,-8,1,3,-4,-13,1,i,
CSc1nc(C)c(C(=O)C[n+]2ccc(C)cc2)cc1C#N,/,-12,-1,-2,-2,-3,8,i,
COc1ccc(C(=O)O/N=C(\N)c2ccc(OC)c(OC)c2)cc1,-7,-56,-1,-1,-2,-10,10,i,
CC(C)Nc1nc(NC(C)C)nc(SCCOC(=O)Nc2ccc(Cl)cc2Cl)n1,/,/,-14,-11,-5,90*,-6,i,
CCOC(=O)CNc1nc(Cl)c(C#N)s1,-10,-13,-1,3,-16,-4,37,i,
CC1CCCC(NCC(O)COC(c2ccc(F)cc2)c2ccc(F)cc2)C1C (stereo unspecified),-1,44,-19,-15,13,80*,27,i,
CCCCC(c1nnnn1CC1CCCO1)N1CCN(c2nc3ccccc3s2)CC1 (stereo unspecified),1,/,-2,-12,-16,/,17,i,
COc1ccccc1Oc1c(C)oc2cc(OC(=O)c3ccco3)ccc2c1=O,3,-7,0,0,4,/,-7,/,
CN1CCN(CCCn2cnc3c(=O)oc4ccccc4c32)CC1,-16,-68,-4,1,10,-6,2,i,
Cc1ccc(OCC(=O)NNC(=O)c2cccnc2)cc1C,/,-2,-1,5,-2,7,5,i,
CCOC(=O)C1=C(C)NC(C)=C(C(=O)OCC)C1C(=O)OCC(=O)N1CCCCC1CC (stereo unspecified),9&-13,/,-1&-1,-2&-1,-2,/,-2,i,
COc1ccc(NC(=O)c2cc(S(=O)(=O)N3CCc4ccccc43)cn2C)c(OC)c1,-10,/,-1,-6,-5,-3,2,i,
O=C(O)C1CCCCC1C(=O)N1CC=C(c2ccccc2)CC1 (stereo unspecified),-16,/,4,4,-4,9,8,i,
CNCCCc1[nH]nc(N)c1C#N,-1,/,6,8,/,1,/,i,
S=C(NCC1CCCO1)NC12CC3CC(CC(C3)C1)C2 (stereo unspecified),/,12,-3,-1,6,-5,-1,i,
O=C(CN1C(=O)S/C(=C\c2ccccc2)C1=O)NC1CCS(=O)(=O)C1 (stereo unspecified),-12,2,-5,-3,/,-3,/,i,
O=S(=O)(Nc1ccc(Cl)cn1)c1cccs1,-12,-4,1,3,1,/,-2,i,
CCn1nc(C)c(NC(=O)c2ccc(Br)o2)c1C,-3,-9,3,4,21,-8,-2,i,
COC(=O)C1CCN(C(=O)C2CCN(C(=O)[C@H](C)NS(=O)(=O)c3ccc(C)cc3)CC2)CC1,-1,/,3,5,-6,0,5,i,
Cn1c(=O)c2c(ncn2CCOC(=O)C(C)(C)Oc2ccc(Cl)cc2)n(C)c1=O,-4,-8,-5,-7,/,/,/,/,
COc1cc(C(C)=O)ccc1OCC(=O)OC(C)C(=O)c1ccc(F)cc1 (stereo unspecified),-7,-7,1,0,/,-10,/,/,
COc1cccc(N2C(=O)C3C(C2=O)C2C=CC3C23CC3)c1 (stereo unspecified),1,/,-1,3,-5,9,7,i,
O=C(NCCC1=CCCCC1)c1cc(-c2ccncc2)nc2ccccc12,-2,1,2,0,-5,11,-4,i,
COc1ccc(CCNC(=O)CSc2ccccn2)cc1,-7,10,0,1,-4,-5,4,/,
O=C(O)C1C2C=CC3(CN(Cc4ccco4)C(=O)C13)O2 (stereo unspecified),-1,2,-3,2,84*,3,14,i,eIF4H FP inh retest=83*;PABP FP inh retest=23
COC(=O)CN1C(=O)C(O)(CC(=O)c2ccc(Br)cc2)c2ccccc21 (stereo unspecified),-3,-10,-3,4,-10,-10,0,i,
O=C(CC(Nc1ccc(F)cc1)c1ccccc1)c1ccccc1 (stereo unspecified),/,-3,0,1,-2,/,8,+,
CCSc1nc(-c2ccccc2)c(-c2ccccc2)n1CC(O)CO (stereo unspecified),/,-41,-4,-3,6,-26,3,i,
C/C(=N\Nc1ncc(Cl)cc1Cl)c1ccc(N2CCOCC2)cc1,/,-21,2,1,-2,19,-5,i,
Cc1ccc(S(=O)(=O)N2CCC(C(=O)N3CCc4ccccc43)CC2)cc1,2,22,-1,-1,6,6,10,i,
COc1ccccc1CNC(=O)C1CCN(S(=O)(=O)c2cccc3nonc23)CC1,-10,11,-2,1,-1,-10,5,/,
CSc1nc(C)c(CCOC(=O)c2ccccc2)c(=O)[nH]1,-13,?,-1,3,-5,-9,-6,i,
COc1ccccc1N(CC(=O)NC(C)(C)C)S(=O)(=O)c1cccs1,-2,26,1,1,2,-5,12,i,
CC(=O)c1ccc(NC(=O)C(C)Nc2ccc(Cl)cc2)cc1 (stereo unspecified),-10,-21,5,2,-6,21,1,i,
CC1(C)C[C@H](O)[C@]2(CO)CC[C@]3(C)C(=CCC4[C@@]5(C)CC[C@H](O)C(C)(C)C5CC[C@]43C)[C@@H]2C1 (stereo partly specified),-13,/,2,-5,/,4,/,/,
O=C(O)/C=C/C(=O)Nc1ccc(N2CCOCC2)nc1N1CCOCC1,/,-1,-2,6,?,-3,?,i,
Cc1cc(OCCCCN2C(=O)NC(C)(C)C2=O)cc(C)c1Cl,7,16,0,-2,-6,-11,9,i,
O=C(Cc1ccc([N+](=O)[O-])cc1)NC(C(=O)O)C(O)c1cccc([N+](=O)[O-])c1 (stereo unspecified),-10,-3,-1,-1,-10,-5,6,i,
Oc1ccc(/C=N/Nc2ccnc3cc(Cl)ccc23)c(O)c1,-2,-15,-3,-6,-22,10,1,i,
CCOc1ccc2nc(/N=C/c3c(C)[nH]n(-c4ccccc4)c3=O)sc2c1,/,-29,1,6,-4,/,12,i,
CCc1cccc(NC(=O)CCNS(=O)(=O)c2cc(Br)cnc2N)c1,-10,16,6,1,/,-2,/,i,
S=c1nc(-c2ccco2)[nH][nH]1,-7,/,0,2,-5,-11,2,i,
Cn1c(C(=O)NN)cc2cc(Oc3ccccc3)ccc21,-4,-26,-9,-10,2,14,-5,i,

# Assay outcomes: PubChem, several laboratories
